PNC inhibitor: perinucleolar compartment assembly inhibition. PC3M PTB-GFP, PNC prevalence imaging, 16 h; active compounds read low. activity change (PNC), negative = inhibition, % at 10 µM. 3.1% of 140,000 active. AID 2417;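 active means readout at or below -70, meaning at least 70% loss of cells showing the perinucleolar compartment, a nuclear body marking cancer cells; inconclusive means readout between -30 and a set limit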;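 further: plate controls were DMSO wells for no effect and camptothecin positive control wells for full effect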
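Compounds are pinned in duplicate onto adhered PC3M cells stably expressing GFP-tagged PTB and incubated 16 h at 37 C. Cells are then fixed, nuclei stained with Hoechst, and PNC-positive cells counted.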
ALOX15B inhib: inhibitors of human 15-lipoxygenase 2 (ALOX15B) | 0.56% of 110,000 active | Potency, µM (highest dose often 57.1 µM), for the others: top-dose activity change, negative = inhibition, most hits filed as inhibitors | AID 881 | purified 15hLO-2, xylenol orange hydroperoxide absorbance | O15296; active means well fitted inhibition curve with a large enough effect; inconclusive means small, poorly fitted or top-dose-only effect; inactive means no such curve, though single readings can be large or run the other way; further: potency means the concentration at half of the fitted maximal effect; nearly all actives have a fitted effect of over 60% in size; many of its hits are not listed in these tables
Target sequence (O15296 whole entry, looked up): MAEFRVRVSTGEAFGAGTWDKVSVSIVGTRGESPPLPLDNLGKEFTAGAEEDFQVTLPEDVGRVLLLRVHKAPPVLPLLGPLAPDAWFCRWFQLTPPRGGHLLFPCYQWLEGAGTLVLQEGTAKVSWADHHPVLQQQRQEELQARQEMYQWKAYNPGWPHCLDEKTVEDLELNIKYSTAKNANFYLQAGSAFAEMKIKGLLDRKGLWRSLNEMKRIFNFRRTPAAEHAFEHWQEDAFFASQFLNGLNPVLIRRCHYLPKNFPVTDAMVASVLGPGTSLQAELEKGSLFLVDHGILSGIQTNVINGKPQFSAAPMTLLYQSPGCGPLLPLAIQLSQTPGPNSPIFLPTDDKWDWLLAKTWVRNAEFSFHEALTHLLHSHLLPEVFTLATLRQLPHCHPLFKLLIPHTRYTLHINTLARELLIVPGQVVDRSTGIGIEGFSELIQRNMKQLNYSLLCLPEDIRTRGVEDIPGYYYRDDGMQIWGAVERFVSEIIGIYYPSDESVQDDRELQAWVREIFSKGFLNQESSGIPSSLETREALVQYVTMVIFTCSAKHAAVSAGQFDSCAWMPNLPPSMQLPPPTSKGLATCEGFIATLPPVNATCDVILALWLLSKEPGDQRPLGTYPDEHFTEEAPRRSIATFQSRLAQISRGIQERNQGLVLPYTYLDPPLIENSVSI
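Enzyme 50 nM, AA 45 uM, 25 mM Hepes pH 7.5 + 0.01% Triton X-100; cpd preinc 15 min RT, rxn 90 min RT; stop/detect with 200 uM XO + 300 uM Fe(II) in 50 mM H2SO4, 30 min; A573/A405.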
* marks the source's active call; other numbers are inactive results; ? = inconclusive; / = no result given; & = joins results of further samples; [ ] = another dose, or the depositor's remark. Unless noted, on the % scale 0 is the no-effect control and ±100 the full control effect. An excerpt; most or all hits stand in other tables.

Structure	PNC inhibitor	ALOX15B inhib
COc1ccc(C2CC(=O)c3cnc(NC(=O)c4cccc(OC)c4)nc3C2)cc1 (stereo not given)	4	7%
CCc1ccc(Oc2coc3cc(OCC(=O)Nc4cc(C)ccc4C)ccc3c2=O)cc1	69	/
CCCNC(=O)c1ccccc1NC(=O)COc1ccc(OC)cc1	28	1%
O=C(Cn1cnc2c(cnn2-c2ccccc2)c1=O)Nc1ccc(S(=O)(=O)N2CCOCC2)cc1	-12	/
Cn1c(CCN2CCCCC2)nc2cc(NS(=O)(=O)c3ccccc3)ccc21	25	8%
COc1cccc(NC(=O)N(C2CCCCC2)C(C)c2cccs2)c1 (stereo not given)	-8	-3%
CC1(C)N=C(SCC(=O)Nc2ccccc2)C(c2ccc(Cl)cc2)=N1	-28	10%
O=C(C(Cc1ccccc1)N1C(=O)C2C3C=CC(C3)C2C1=O)N1CCCCCC1 (stereo not given)	11	2%
Cc1[nH]nc2c1C(c1ccccc1)C1=C(CC(C)(C)CC1=O)N2 (stereo not given)	-19	2%
CC1CCc2c(nc3ncnn3c2Nc2ccc(OC(F)(F)F)cc2)C1 (stereo not given)	235	/
CCOC(=O)c1ccc(NC(=O)CSc2nc3c(c(=O)n2CC)SC(C)C3)cc1 (stereo not given)	?	-5%
CC(C)[N+]1(C)[C@@H]2CC[C@H]1CC(OC(=O)C(CO)c1ccccc1)C2 (stereo not given in full)	22	/
CCN1CCN(C(=O)CS(=O)Cc2nc(-c3ccc(OC)cc3)oc2C)CC1 (stereo not given)	-1	-4%
Cc1cc(/C=C/c2ccc3cc(N(C)C)ccc3[n+]2C)c(C)n1-c1ccccc1	/	-10%
Cc1cnc(C(=O)NCCc2ccc(S(=O)(=O)NC(=O)NC3CCCCC3)cc2)cn1	?	-13%
COc1ccccc1NS(=O)(=O)c1cc(C(=O)N2CC(C)CC(C)C2)ccc1C (stereo not given)	16	-1%
COC(=O)c1ccc(N=C2S/C(=C\c3cc(C)n(-c4cccnc4)c3C)C(=O)N2C)cc1	-15	-22%
CC1C/C(=N/O)C(C)CN1 (stereo not given)	?	1%
CC(Sc1nc2ccccc2s1)C(=O)N1CCOCC1 (stereo not given)	25	-7%
O=C1OCCN1/N=C/c1ccc([N+](=O)[O-])o1	43	-13%
Cc1ccc(C(=O)CCC(=O)Nc2cccc(C(F)(F)F)c2)cc1	74	4%
CCCC(O)(CCN1CCCCC1)c1ccc(OCC)cc1 (stereo not given)	10	11%
O=C(Oc1ccccc1)c1c(Cl)cccc1P(=O)(O)O	?	-4%
CCC(C)C(NC(=O)OC(C)(C)C)C(=O)NCc1ccco1 (stereo not given)	10	0%
Cc1ccc(NC(=O)Cn2nc(C)c3ccccc3c2=O)cc1F	?	-13%
Cc1cc(/C=C\c2ccc3cc(N(C)C)ccc3[n+]2C)c(C)n1-c1ccccc1	/	-1%[25.6 µM]
Cc1ccnc(SCC(=O)Nc2sc3c(c2C#N)CCC(C(C)(C)C)C3)n1 (stereo not given)	22	9%
COc1ccccc1NC(=O)CSc1nccc(=O)[nH]1	?	4%
O=C(O)CCC(=O)C(=O)O	/	-2%
O=C(O)c1ccc2c(c1)CC(c1ccccc1)OC2=O (stereo not given)	-4	-2%

For reference, some entries already given.
Structure	PNC inhibitor	ALOX15B inhib
O=C(Cn1cnc2c(cnn2-c2ccccc2)c1=O)Nc1ccc(S(=O)(=O)N2CCOCC2)cc1	-12	/
Cn1c(CCN2CCCCC2)nc2cc(NS(=O)(=O)c3ccccc3)ccc21	25	8%
COc1cccc(NC(=O)N(C2CCCCC2)C(C)c2cccs2)c1 (stereo not given)	-8	-3%

Looked up one by one from the list above (2):
Structure	PNC inhibitor	ALOX15B inhib
CC1(C)N=C(SCC(=O)Nc2ccccc2)C(c2ccc(Cl)cc2)=N1	-28	10%
CCOC(=O)c1ccc(NC(=O)CSc2nc3c(c(=O)n2CC)SC(C)C3)cc1 (stereo not given)	?	-5%

(list continues)
Structure	PNC inhibitor	ALOX15B inhib
COc1ccc2cc(CN(CCO)C(=O)c3ccc(Br)cc3)c(=O)[nH]c2c1	-11	-1%
COC(CNC(=O)c1ccc(N2CCCC2=O)cc1)OC	15	-4%
Cc1cc(C)n(C(=O)C(C)n2nc([N+](=O)[O-])c(Br)c2C)n1 (stereo not given)	-21	/
CCOC(=O)c1ccc(NC(=O)CCOc2ccc(OC)cc2)cc1	37	1%
COc1cccc(C2=NOC(C(=O)NC(C)C)C2)c1 (stereo not given)	?	13%
CC(C)C(=O)N1CCN(C2=NS(=O)(=O)c3ccccc32)CC1	-8	-10%
Nc1nc2c(ncn2COC(CO)CO)c(=O)[nH]1	?	3%[25.6 µM]
Cc1nnc(SCC(=O)NCc2cccs2)[nH]c1=O	23	0%
CC(=O)NC1(NC(C)=O)CCN(C)C(c2ccccc2)C1C (stereo not given)	14	1%
OCc1cccnc1	/	-9%[0.0915 µM]
CCOC(=O)c1cnn(-c2ccccc2)c1NC(=O)C(F)(F)C(F)(F)C(F)(F)F	-9	-4%
Cc1cc2n(c(=O)c1C#N)CCCN2c1ccccc1	-3	/
O=C(c1cccnc1)N1CCN(Cc2cccc(F)c2)CC1	-26	-22%
NCCS	11	21%&-3%
CSc1ccccc1NC(=O)c1cc(CC(C)C)on1	-11	-18%

Rewritten with two lines to a compound: 7 of the compounds above.
Below each SMILES: PNC inhibitor | ALOX15B inhib
> CC(C)C(=O)N1CCN(C2=NS(=O)(=O)c3ccccc32)CC1
  -8 | -10%
> Nc1nc2c(ncn2COC(CO)CO)c(=O)[nH]1
  ? | 3%[25.6 µM]
> Cc1nnc(SCC(=O)NCc2cccs2)[nH]c1=O
  23 | 0%
> CC(=O)NC1(NC(C)=O)CCN(C)C(c2ccccc2)C1C (stereo not given)
  14 | 1%
> OCc1cccnc1
  / | -9%[0.0915 µM]
> CCOC(=O)c1cnn(-c2ccccc2)c1NC(=O)C(F)(F)C(F)(F)C(F)(F)F
  -9 | -4%
> Cc1cc2n(c(=O)c1C#N)CCCN2c1ccccc1
  -3 | /

Compound profiles, as listed above:
CC(C)C(=O)N1CCN(C2=NS(=O)(=O)c3ccccc32)CC1 reads PNC inhibitor: -8; ALOX15B inhib: -10%
CC(=O)NC1(NC(C)=O)CCN(C)C(c2ccccc2)C1C (stereo not given) reads PNC inhibitor: 14; ALOX15B inhib: 1%

Screens from PubChem BioAssay.
